# Bioassay records from PubChem.
# TRPV1 PAM – HTS Assay for Compounds that Act as Potentiators of the Vanilloid Receptor 1. potentiation, % at 8.33 µM. 0.02% of 320,000 active. TRPV1-expressing cells, Fluo-8 calcium influx, capsaicin EC20 potentiation; host cell line not named in the record; control for the full effect not named in the record. Transient receptor potential cation channel subfamily V member 1 (Homo sapiens), Q8NER1; active means potentiation above 80%; inconclusive means 30% to 80%; inactive means below 30%; also: 0% is about no effect
#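 TRPV1-expressing cells were cultured overnight at 35.5C and loaded with Fluo-8 calcium dye for 40 to 90 min at room temperature. After a 10 s baseline, compound was added and calcium influx was read kinetically for 3 min (ex 480/em 520 nm).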
# Sfp inh – qHTS Assay for Inhibitors of Bacillus subtilis Sfp phosphopantetheinyl transferase (PPTase); 4'-phosphopantetheinyl transferase ffp (Bacillus subtilis), Q9F4F7; Biochemical Sfp PPTase activity, qHTS; Potency, µM, for the others: max response, negative = inhibition, hits mostly inhibitors; 3.5% of 310,000 active; AID 1490, 2009; active = well fitted inhibition curve with a large enough effect; inconclusive = small, poorly fitted or top-dose-only effect, or another doubt; inactive = no such curve, though single readings can be large or run the other way;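 also: the enzyme is Sfp with the accession as filed and its product quenches rhodamine fluorescence; potency is read from the fitted curve at half-maximal effect; 0% = enzyme reaction without inhibitor and -100% = no enzyme wells; top concentration of the series not given in the record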
#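 Sfp 15 nM + cpd, 15 min RT; start w/ rhodamine-CoA 5 uM, BHQ-2-YbbR 12.5 uM (final); 50 mM Hepes pH 7.6, 10 mM MgCl2, 0.01% NP-40, 0.01% BSA; read 525/598 nm at 0 and 30 min.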
# ClpP mod – qHTS Assay for Activators of ClpP. purified B. subtilis ClpP, FRET peptide cleavage, 20 min. Potency, µM (doses to about 57.5 µM), without a hit: at the top dose activity change, negative = active. 1.9% of 340,000 active; active = well fitted falling curve with a large enough effect; inconclusive = small, poorly fitted or top-dose-only effect; inactive = no such curve, though single readings can be large or run the other way; also: potency is read from the fitted curve at half-maximal effect; the source files actives as falling curves though it sought activators and does not explain the sign; nearly all actives have a fitted effect of over 65% in size; many hits overshoot -100%
# Target sequence (P80244 whole entry, looked up): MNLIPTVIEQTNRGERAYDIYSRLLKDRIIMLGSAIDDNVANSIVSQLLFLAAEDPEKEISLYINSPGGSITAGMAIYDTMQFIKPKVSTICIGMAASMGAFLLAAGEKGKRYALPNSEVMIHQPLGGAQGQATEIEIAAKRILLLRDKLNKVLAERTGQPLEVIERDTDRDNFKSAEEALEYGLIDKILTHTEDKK
#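 ClpP 10 microg/mL final, pH 8 Tris/KCl buffer with BSA, glycerol, Tween-20; compound pinned in; FRET-FV substrate; RT 20 min; Ex320/Em430; ΔFRET vs ADEP 5.8 microM, DMSO, no enzyme.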
# D2 potentiator – Beta-Arrestin HTS for Positive Allosteric Modulators of the Human D2 Dopamine Receptor: Potentiators. D(2) dopamine receptor (Homo sapiens), P14416. DiscoveRx D2 beta-arrestin cells, luminescence, 90 min; 100% = 57 uM dopamine signal. potentiation, % (no concentration beside the values). 0.23% of 360,000 active. AID 624464, 2012; active = potentiation of 50% or more; inconclusive = 30% to 50%; inactive = 30% or less;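 also: compound concentration not given in the record; tested on top of an EC20 dose of dopamine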
# Target sequence (P14416 whole entry, looked up): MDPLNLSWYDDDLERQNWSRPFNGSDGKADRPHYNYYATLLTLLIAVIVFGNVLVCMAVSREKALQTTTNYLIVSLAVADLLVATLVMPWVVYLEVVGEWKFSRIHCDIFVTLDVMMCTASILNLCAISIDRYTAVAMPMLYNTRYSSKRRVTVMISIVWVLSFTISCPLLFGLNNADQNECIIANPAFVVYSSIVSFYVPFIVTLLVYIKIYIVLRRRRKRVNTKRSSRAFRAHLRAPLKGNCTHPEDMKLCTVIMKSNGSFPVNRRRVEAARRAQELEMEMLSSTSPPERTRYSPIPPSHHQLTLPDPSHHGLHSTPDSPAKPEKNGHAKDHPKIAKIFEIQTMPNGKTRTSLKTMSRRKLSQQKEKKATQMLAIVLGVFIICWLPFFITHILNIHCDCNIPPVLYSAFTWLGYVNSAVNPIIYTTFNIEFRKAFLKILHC
#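 PathHunter beta-arrestin assay in DiscoveRx D2 cells. Compounds were added with an EC20 of dopamine (50 nM final) for 90 min at 37 deg C. Luminescence was read 1 h after detection reagent, with 57 uM dopamine as the EC100 control.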
# Menin MLL FP FL – qHTS Assay for Inhibitors Targeting the Menin-MLL Interaction in MLL Related Leukemias: Competition With Fluorescein Labeled MLL-derived Peptide. Fluorescence polarization, fluorescein-MLL peptide displacement from menin. FP activity change, % at 61.4 µM. 290,000 tested, under 10 active; inconclusive = falling polarisation curve, or a change in total fluorescence; inactive = total fluorescence flat and polarisation flat or rising; no compound was filed as active; the % refers to the polarisation; negative = inhibition;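 also: % of control where 0% means no effect; inhibitors lower the polarisation; unlabelled MLL peptide was the positive control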
# gsp antag – qHTS for Antagonists of gsp, the Etiologic Mutation Responsible for Fibrous Dysplasia/McCune-Albright Syndrome: qHTS | 0.4% of 340,000 active | Potency, µM (doses to about 76.9 µM), inactives show top-dose activity change, negative = inhibition, hits mostly inhibitors | AID 624288, 2012 | gsp-mutant cells, cAMP HTRF, 30 min; control for the full effect not named in the record; active = falling curve of any shape with a large fitted effect; inconclusive = falling curve, mostly with a smaller effect; inactive = flat or rising curve; cell line not stated here;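 also: intracellular cAMP measured with PDE inhibitor Ro 20-1724 present during compound exposure; potency is read from the fitted curve at half-maximal effect; % is scaled to controls: 0 for no effect and ±100 for the full control effect; nearly all actives have a fitted effect of over 65% in size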
#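 G418-selected cells were plated in DMEM/10% FBS for 16-24 h at 37C, then treated with compounds plus the PDE inhibitor […] (300 uM solution added) for 30 min at 37C. Intracellular cAMP was measured by HTRF after 30 min lysis at room temperature.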
# gsp ag – qHTS for Agonist of gsp, the Etiologic Mutation Responsible for Fibrous Dysplasia/McCune-Albright Syndrome: qHTS; gsp mutant cells, cAMP HTRF, 30 min; control for the full effect not named in the record; Potency, µM (titrated, usually from 76.9 µM), for the others: at the highest dose activation (cAMP increase), hits mostly activators; 0.13% of 340,000 active; AID 624287, 2012; active = well fitted activation curve with a large enough effect; inconclusive = small, poorly fitted or top-dose-only effect, or another doubt; inactive = no such curve, though single readings can be large or run the other way; cell line not stated here;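 also: phosphodiesterase inhibitor Ro 20-1724 added with compounds to block cAMP breakdown; potency is read from the fitted curve at half-maximal effect; nearly all actives have a fitted effect of over 60% in size; about a fifth of the inactives were tested at one dose only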
#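 Cells in DMEM/10% FBS with G418 were pretreated with compounds in DMSO plus […] (300 uM stock) for 30 min at 37C. cAMP was measured by HTRF (cAMP-d2 plus anti-cAMP antibody-K) after 30 min at room temperature.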
# Numbers without * were called inactive; ? = inconclusive; . = no result given; & = joins results of further samples; [ ] = another dose, or the depositor's remark.
SMILES,TRPV1 PAM,Sfp inh,ClpP mod,D2 potentiator,Menin MLL FP FL,gsp antag,gsp ag
COC(=O)c1ccc(CC(=O)c2nc3ccccc3s2)cc1,14,9%,-0.2%,-5,3.0,2%,5%[15.4 µM]
Cc1[nH]c2ccccc2c1C(=O)COC(=O)c1c(-c2c(F)cccc2Cl)noc1C,0,8%,-15%,26,3.1,?,5%
O=C(CSc1nccn1Cc1ccc(F)cc1)NC1CCCCC1,.,.,-1.1%,-9,.,.,-24%
COC(=O)c1cnn(-c2cc(Oc3ccccc3)ncn2)c1N,8,-9%,-2.7%,1,3.1,-6%,5%
COc1ccccc1N1C(=O)C2C(C(=O)c3ccccc3)=NN(c3ccccc3)C2C1=O (stereo unspecified),?,14%,1.0%,-10,?,-3%,5%[15.4 µM]
CCOC(=O)Nc1n[nH]c(NC(=O)OCC)c1[N+](=O)[O-],19,-4%,-3.8%,-3,1.9,-2%,-4%[15.4 µM]
CCC(C(=O)NCc1ccco1)N(C(=O)CNS(=O)(=O)c1ccccc1)c1ccc(F)cc1 (stereo unspecified),2,11%,-26%,-5,2.1,-20%,23%[15.4 µM]
CC(=O)N(c1cc(C)ccc1C)c1ccccc1[N+](=O)[O-],.,.,.,-3,.,0%,?
CCCOc1ccc(/C(O)=C2/C(=O)C(=O)N(CCN(C)C)C2c2ccncc2)cc1 (stereo unspecified),.,.,-0.3%,-4,.,5%,-24%
COc1ccc(OCCC(=O)Nc2cc(C)on2)cc1,13,16%,-1.2%,-5,0.9,5%,-23%
Cc1ccc(CCNS(=O)(=O)c2c(C)nc3sccn3c2=O)cc1,-20,14%,4.1%,-3,-0.3,1%,-17%
O=C1NC[C@H](Cc2ccccc2)N(C[C@H]2CCCN2C[C@H](Cc2ccccc2)N2C[C@H](Cc3ccc(O)cc3)N(CCc3ccccc3)C(=O)C2=O)C1=O,.,.,0.2%,-8,.,-23%,.
COc1cccc(-n2nc(-c3ccnn3-c3ccc(C)cc3)c(=O)n(C)c2=O)c1,-11,5%,-1.5%,-18,4.7,-8%,4%
CCc1cc(C(=O)NNC(=O)c2csc(N3CCOCC3)n2)sc1C,-34,.,.,4,.,-16%,-21%[15.4 µM]
Cc1cccc(NC(=O)CSc2nnc(CNC(=O)c3ccc(S(=O)(=O)N(C)C)cc3)n2-c2cccc(C)c2)c1,-10,-5%,3.8%,4,3.4,-5%,-5%[15.4 µM]
COc1ccc(CCC(=O)NCCc2nc3ccccc3[nH]2)cc1,-1,19%,-1.2%,-11,0.0,6%,-48%[inhibitor]
COc1ccc(CCC(=O)N2CCCc3ccccc32)cc1,?,5%,.,-2,-2.1,7%,-8%[15.4 µM]
CCOC(=O)C1=C(CC)Nc2ccccc2N/C1=N\S(=O)(=O)c1ccc2ccccc2c1,13,5%,-1.0%,-5,-0.1,-13%,-6%
Cc1ccc(-c2nonc2NC(=O)c2ccco2)cc1,13,0%,1.7%,-3,-14,-1%,11%
CC(C)C(NC(=O)c1ccc(F)cc1)C(=O)N1CCOCC1 (stereo unspecified),2,.,0.5%,-10,.,2%,-12%
Cc1ccc(S(=O)(=O)NCC(=O)NCc2cc(=O)n(C)c(=O)n2C)cc1,-10,18%,0.1%,-4,0.3,13%,23%
CC(C)N(Cc1nc(-c2ccc3c(c2)OCO3)no1)Cc1nccn1C,-2,11%,-2.0%,-10,0.2,2%,-17%
CCOc1c(O)ccc(C2NC(=O)N(C)C(C)=C2C(=O)OC)c1[N+](=O)[O-] (stereo unspecified),-7,-11%,1.7%,-14,-2.8,-2%,38%
COc1ccccc1OCC(=O)NCC1CCCN(C(=O)c2cccc(C)c2)C1 (stereo unspecified),.,.,1.5%,-4,.,.,-40%[inhibitor]
CC12CCC(C/C1=N/NC(=O)COc1ccccc1Cl)C2(C)C (stereo unspecified),-2,-2%,-0.9%,0,-3.7,12%,7%
O=C(N/N=C(\c1ccccc1)c1cccnc1)c1cc(O)ccc1O,-11,?,.,.,-0.8,.,.
CC(C)N(Cc1nc(-c2ccccc2)no1)C(=O)CSc1ccccc1,2,-10%,-2.5%,-1,-1.4,-15%,7%
Cc1cc(C)n(-c2c(F)c(F)c(CO)c(F)c2F)n1,?,10%,-1.1%,-13,-2.2,4%,-58%[inhibitor]
COc1cccc(CNS(=O)(=O)c2cc(Br)cc3c2N(C(C)=O)C(C)C3)c1 (stereo unspecified),3,13%,1.2%&-0.5%,-13,3.8,-22%,-1%
COc1cc(/C=C/C(=O)Nc2ccc(C)cc2)cc(OC)c1OC,2,-2%,-2.2%,-11,0.6,-2%,4%
C#CCOCCOCCOCCNc1nc(N2CCN(C(=O)C([C@@H](C)O)n3cc([C@@H](N)CCCCN)nn3)CC2)nc(N2CCN(C(=O)[C@H](CCCN=C(N)N)n3cc(C(N)[C@@H](C)CC)nn3)CC2)n1 (stereo partly specified),.,.,0.1%,-7,.,17%,?
COc1ccccc1NCCC(=O)OCC(=O)NC1CC1,2,-10%,0.1%,-1,-23,-7%,0%
CCc1ccc(/C=N/NC(=O)c2nnn(-c3nonc3N)c2CN2CCOCC2)cc1,0,-15%,0.2%,-5,.,-29%,15%
C[C@@H]1NC(=O)c2cc([N+](=O)[O-])cc(I)c2NCC[C@@H](C(N)=O)NC(=O)[C@H](CC(N)=O)NC1=O,1,-1%,1.6%,-3,0.7,4%,25%
CCN(CC)C(=O)COc1ccc2c3c(c(=O)oc2c1)CCCC3,20,25%,.,-4,2.0,4%,-48%[inhibitor]
COc1ccc2nc(NC(=O)CCNC(=O)c3ccccc3Cl)sc2c1,0,14%,.,-1,1.7,6%,-4%[15.4 µM]
COc1ccc(N(CC(=O)NCCc2ccc(C)cc2)S(=O)(=O)c2c(C)noc2C)cc1,-4,-1%,-0.8%,19,.,-11%,-22%
C#CCOCCOCCOCCNc1nc(N2CCN(C(=O)C([C@@H](C)CC)n3cc(C(N)COC(=O)C(F)(F)F)nn3)CC2)nc(N2CCN(C(=O)C([C@@H](C)CC)n3cc(C(N)CC(C)C)nn3)CC2)n1 (stereo partly specified),.,.,0.7%,2,.,9%,-23%
Cc1ccc2c(c1)c1c(n2CC(O)CN2CCC(C)CC2)CCCC1 (stereo unspecified),-15,-17%,-9.2%,-19,-10,14%,-31%
CCc1cc(-c2n[nH]c(C)c2-c2nc3ccccc3n2C)c(O)c(CN2CCN(C)CC2)c1O,-10,-5%,-1.9%,-10,3.9,10%,-43%[inhibitor]
c1ccc2c(-c3c[nH]c4ccccc34)c3ccccc3nc2c1,2,12%,-1.0%,-22,24,2%,0%
CC(C)NC(=O)COc1ccc(S(=O)(=O)N2CCCC2)cc1,-15,7%,1.9%,0,0.9,5%,8%[15.4 µM]
CC(C)NC(=O)CN1CCN(Cc2nc(-c3cccs3)no2)CC1,11,6%,.,-2,-1.7,5%,0%
Cc1ccc(S(=O)(=O)[N-]c2nc3ccccc3nc2-[n+]2cc(C)cc(C)c2)cc1,2,4%,4.6%,5,3.7,4%,17%
Cc1ccc(C(=O)NS(=O)(=O)c2ccc(C)cc2)cc1,.,12%,-0.9%,-1,0.6,1%,-3%
C=CCn1c(C)nnc1SCC(=O)Nc1ccc2c(c1)OCCO2,.,.,-2.8%,-11,.,4%,-39%[inhibitor]
COC(=O)c1[nH]c2c(c1C)C(=O)CC(c1cccc(OC)c1)C2 (stereo unspecified),-34,8%,0.5%,2,-5.5,-13%,-32%[15.4 µM]
COC(=O)c1ccc(CSc2nc3c(cnn3-c3ccc(C)c(C)c3)c(=O)[nH]2)o1,13,9%,-1.5%,-10,2.3,-4%,-25%
O=S(=O)(c1cccc(-c2cn3cccnc3n2)c1)N1CCCCCC1,-9,0%,25%,5,-1.1,4%,?
COc1ccc(C(=O)NCCNC(=O)c2ccc(C)nc2)cc1,26,17%,.,-1,-0.2,2%,-6%[15.4 µM]
COc1ccc(-c2coc3c(CN4CCCCC4)c(O)c(CN4CCCCC4)c(O)c3c2=O)cc1,6,16µM*,.,.,0.0,.,.
CC(C)[C@H](NC(=O)c1ccccc1)C(=O)OCC(=O)NCCC1=CCCCC1,-5,17%,-3.4%,-13,5.1,-13%,0%
COc1ccccc1Oc1c(C)oc2c(CN3CCN(C)CC3)c(O)ccc2c1=O,-1,22%,.,.,5.7,.,.
CCN1CCN(CC(=O)c2ccc(OC)cc2)CC1,-1,22%,-0.6%,3,-8.3,7%,19%
CCOC(=O)N1CCC(NC(=O)c2cc(COc3c(C)cccc3C)on2)CC1,-9,13%,0.2%,8,.,-15%,-1%
Cc1ccccc1Nc1nc(CSc2nnc(-c3ccoc3C)n2C)cs1,6,20µM*,-0.7%,-35,6.6,-15%,-81%[inhibitor]
CCCCNC(=O)c1onc(CSc2ccccn2)c1C(=O)NCCCC,.,.,-0.1%,-5,.,1%,?
OC(CN1CCOCC1)Cn1c(-c2cccc(Cl)c2)nc2ccccc21 (stereo unspecified),13,5%,?,-11,3.5,-1%,2%
O=S(=O)(c1ccccc1)N1CCN(Cc2c(O)ccc3ccccc23)CC1,.,.,-18%,3,.,5%,-33%
O=S(=O)(Nc1cccc(-c2ccc(N3CCCCCC3)nn2)c1)c1ccc(C(F)(F)F)cc1,-2,5%,-2.1%,-7,1.4,?,0%
C=CCn1c(O)c(N=NC(=S)Nc2ccc(OC)cc2)c2ccccc21,0,-13%,22µM*,-21,2.7,-2%,-1%[15.4 µM]
CC(C)(C)NC(=O)c1cc(Cl)ccc1[N+](=O)[O-],-24,6%,?,-14,0.7,7%,-50%
